T cruzi repl: T. cruzi replication inhibition. inhibition, % (concentration not given with the values). T. cruzi beta-gal in NIH3T3, luminescence, 90 h. AID 1885. hit rate 1.4% among 300,000;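 active = mean inhibition across valid replicates above about 55%, limit read from the data; inconclusive = mean below that limit but half or more replicates reach it; inactive = mean below it, under half of replicates reach it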;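 note: signal also drops with host cell toxicity which is not excluded here; 0% = plate median of DMSO wells and 100% = zero luminescence signal; higher percent means less beta-gal luminescence so fewer parasites; stock transfer was 50 nL into about 50 µL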
rRNA inh HTS: inhibitors of bacterial rRNA selective over humanized ribosomes; E. coli WT GFP vs humanized-ribosome RFP mutants, fluorescence, 24 h; hits give low values; DMSO median 0, no signal -100; GFP signal change (wild-type ribosome), % (no concentration beside the values); hit rate 1.6% among 350,000; AID 720706;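 active = significant combined selectivity score with lowered wild-type GFP, culture density cut under 30%, mutant RFP and density less affected; inactive = any of these conditions unmet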; note: one replicate is shown; some compounds called inactive have numbers as strong as hits
Calb FLC: C. albicans growth modulation with fluconazole; C. albicans CaCi-2 (fluconazole-resistant clinical isolate) + fluconazole, Alamar Blue growth, 48 h; growth inhibition, % (concentration not given with the values); hit rate 0.57% among 300,000; AID 1979;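 active = most replicates above 75%; inconclusive = exactly half above 75%; inactive = most below 75%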;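 note: all wells also contain fluconazole at 8 µg/ml as a sub-toxic cotreatment; 0% = median of DMSO wells and 100% = median of geldanamycin control wells; wells of about 8 µL received 7.5 nL stock; the first replicate is given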
MLL AF4-AF9 inh: blocks AF4 peptide binding to human AF9; P42568; AlphaScreen, biotin-AF4 peptide binding to FLAG-AF9; inhibition, % at 10 µM; hit rate 0.47% among 350,000;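 active = every replicate reaching a set inhibition limit, whatever the replicate mean, cut at about 25% in these data; inconclusive = mean inhibition reaches that limit but some replicates miss it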;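 note: 0% = plate neutral control median and 100% = total signal loss; the record names both 10 and 1 µM as test concentration; the first replicate is given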
Target sequence (P42568 whole entry, looked up): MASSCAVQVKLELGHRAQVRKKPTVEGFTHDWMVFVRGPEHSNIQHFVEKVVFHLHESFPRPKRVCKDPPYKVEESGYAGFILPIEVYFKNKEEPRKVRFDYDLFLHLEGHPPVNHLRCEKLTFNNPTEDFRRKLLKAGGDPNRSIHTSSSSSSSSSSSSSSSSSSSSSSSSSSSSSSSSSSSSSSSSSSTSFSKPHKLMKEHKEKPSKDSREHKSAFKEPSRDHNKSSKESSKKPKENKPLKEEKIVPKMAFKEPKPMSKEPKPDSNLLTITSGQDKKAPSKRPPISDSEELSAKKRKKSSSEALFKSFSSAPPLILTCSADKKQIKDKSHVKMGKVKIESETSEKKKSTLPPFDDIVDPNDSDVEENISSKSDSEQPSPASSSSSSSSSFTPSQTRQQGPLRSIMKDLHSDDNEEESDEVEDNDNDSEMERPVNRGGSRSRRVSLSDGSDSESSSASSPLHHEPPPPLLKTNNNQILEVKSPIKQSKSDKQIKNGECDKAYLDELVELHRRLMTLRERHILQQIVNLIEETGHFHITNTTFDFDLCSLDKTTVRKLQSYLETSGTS
RanGTP-Imp inh: disruptors of Ran-importin-beta complex formation – biochemical, FRET, CFP-Ran, YFP-importin-beta, homogeneous, primary screen | cell-free CFP-Ran/YFP-importin-beta FRET ratio | inhibition, % (concentration not given with the values) | hit rate 1.1% among 300,000 | AID 2216;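 active = most replicates above 15%; inconclusive = exactly half above 15%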;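 note: 0% = DMSO wells and 100% = Ran loaded with GDP instead of GTP; wells of about 40 µL received 100 nL stock; the first replicate is given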
Beta apoptosis: blocks beta cell apoptosis | protection from apoptosis, % (no concentration beside the values) | hit rate 0.8% among 300,000 | AID 435005 | INS-1E cytokine-induced death, ATP luminescence, 48 h; percent of positive-control rescue, neutral wells zero;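 active = all replicates at 75% or more, or half of them and the mean; inconclusive = half reach 75% but not the mean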;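 note: 0% = cytokine-treated negative control wells and 100% = positive control rescue; higher means more ATP so stronger rescue from cytokine killing; wells of about 40 µL received 100 nL stock; the first replicate is given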
Vif A3G: HIV-1 Vif–A3G interaction blockers – biochemical, TR-FRET, GST-Vif 1-94, biotin-A3G peptide, dose response retest, primary screen (AID 1117319); TR-FRET GST-Vif / biotin-A3G peptide binding; higher % means a stronger effect; test concentration not given here; strong numbers were not always called active; inhibition, %, or IC50 in µM where a hit was titrated; hit rate 0.57% among 260,000;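 active = above the screen mean plus three standard deviations and confirmed in dose response; inconclusive = results disagree or hit not tested in dose response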;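 note: Vif residues 1-94 fused to GST binding biotinylated APOBEC3G peptide 110-148; 0% = full assay without inhibitor and 100% = GST in place of GST-Vif; retest series ran down from 100 µM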
A1 inh: inhibitors of the anti-apoptotic protein A1, read as caspase activation; MEF A1-2A-BIM cells, Caspase-Glo 3/7 luminescence, 3 h; percent of clofoctol response, vehicle zero; caspase activation, % (concentration not given with the values); hit rate 0.066% among 330,000; AID 2462;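 active = over half of replicate activation scores above 10%, or exactly half above 10 with the replicate mean above 10; inconclusive = replicate mean below 10 yet half the replicates above 10; inactive = over half of replicates below 10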;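 note: wells of about 30 µL received 50 nL stock; many hits fall short of the cut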
rRNA inh HTS OD600: further read-out of rRNA inh HTS, marked with its call; OD600 change, %; measured here: OD600 growth;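 optical density of the mix in the first replicate; 0 = DMSO median and -100 = no signal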
rRNA inh HTS RFP: further read-out of rRNA inh HTS, marked with its call; RFP signal change, %; measured here: RFP humanized mutant strains;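 first replicate; 0 = DMSO median and -100 = no signal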
An asterisk follows results filed as active; ? = inconclusive; . = not tested or not shown; & = joins results of further samples. Some of the compounds tested. The share of hits here may be higher or lower than overall.

Results follow in this order: T cruzi repl	rRNA inh HTS	rRNA inh HTS OD600	rRNA inh HTS RFP	Calb FLC	MLL AF4-AF9 inh	RanGTP-Imp inh	Beta apoptosis	Vif A3G	A1 inh
CC(C)COc1ccc(S(=O)(=O)NNC(=O)c2cc3ccccc3o2)cc1
 : -3	.	.	.	55	.	-2.0	-3	.	0.4
COc1ccc(COC(=O)N/N=C/c2cccs2)cc1
 : 27	5	14	-0.7	-2	-11	0.6	.	.	0.2
Cc1ccc(S(=O)(=O)N2CCOCC2)cc1NC(=O)CSCc1c(C)noc1C
 : .	5	10	2.6	.	-3.5	.	-5	16%	-0.5
CCOc1ccc(S(=O)(=O)NCc2ccccc2OC)cc1
 : -3	-7	-13	-1.2	1	-1.6	-3.1	-11	24%	2.4
Cc1cc(C)nc(NC(=O)CSc2nccc(C)n2)n1
 : -25	0	2	-0.7	-16	-2.3	-1.8	-11	0%	0.3
Nc1c(N2CCCC2)cc(Cl)c2nonc12
 : -30	.	.	.	-2	.	-3.6	2	23%	0.7
Cc1cccc(NC(=O)c2nc[nH]c2C(=O)N[C@@H](CC(C)C)C(=O)OCc2ccccc2)c1
 : 21	11	6	-1.2	4	0.2	-0.7	-5	3%	0.5
CC(c1ccccc1)C1CC(=O)N(c2ccc(C(=O)O)cc2)C1=O (centres undefined)
 : -9	7	5	1.4	?	-41	-3.0	-6	-8%	-0.3
COc1ccc(Cl)cc1NC(=O)CSc1nnc(C2CC2)n1C
 : -2	3	2	-1.9	16	-2.2	5.8	5	-5%	0.3
COc1cccc(C(=O)CSc2nnc(-c3cc(OC)cc(OC)c3)o2)c1
 : -1	.	.	.	6	.	2.0	1	2%	1.0
Cc1cc(C)n(C(=O)CSc2nnc(SCC(=O)n3nc(C)cc3C)s2)n1
 : -14	.	.	.	-5	.	-0.1	-3	0%	0.2
Cc1ccc(-c2nc3cnccn3c2Nc2ccccc2)o1
 : -18	5	7	0.0	-3	-5.6	8.1	0	6%	-1.0
O=C1NC(c2ccc(Br)cc2)Nc2sc3c(c21)CCC3 (centres undefined)
 : 3	.	.	.	5	.	-3.9	-8	33%	0.5
Fc1ccc(CNCc2ccccc2Cl)cc1
 : -8	13	8	-3.7	-3	0.6	-0.7	-4	.	0.1
Cc1ccc(-n2c(CCc3ccccc3)n[nH]c2=S)cc1C
 : 10	-32	-32	2.1	2	-7.4	-0.8	.	.	0.4
COC(=O)c1ccc(/C=N/Nc2nc(N3CCCCC3)nc(N3CCCCC3)n2)cc1
 : -19	.	.	.	4	0.3	?	2	.	-0.1
COC(=O)c1cccc(NS(=O)(=O)c2ccc(OC)c(OC)c2)c1C
 : -12	.	.	.	-5	.	1.5	13	9%	0.3
O=C(CSc1nc2c(c(=O)n1-c1ccc(Cl)cc1)SCC2)NCC1CCCO1 (centres undefined)
 : 2	.	.	.	24	.	2.5	0	12%	0.4
COc1ccccc1OCc1ccc(C(=O)Nc2ccc(Cl)cn2)o1
 : -4	16	18	0.4	-6	-0.4	0.5	7	-2%	-1.3
C#CCOCCOCCOCCNc1nc(N2CCN(C(=O)CCCCCCCCCCNC(=O)[C@H](CO)n3cc(CCCSC)nn3)CC2)nc(N2CCN(C(=O)CCCCCCCCCCNC(=O)[C@H](CCCCN)n3cc(CCO)nn3)CC2)n1
 : .	-23	-31	15	.	19	.	2	.	0.5
CC(=O)NC(C)c1cc(Cl)c2cccnc2c1O (centres undefined)
 : .	-12	-18	-0.2	.	4.5	.	92*	.	-1.0
COc1ccc(NC(=O)Nc2ccc(N3CCCC3=O)cc2)cc1OC
 : 4	-1	2	1.9	26	5.4	-1.7	0	17%	-0.4
COc1ccc(S(=O)(=O)NCc2ccccn2)cc1NC(=O)c1ccccc1F
 : -6	8	10	1.4	-5	-0.2	2.7	6	.	0.1
CN(C)S(=O)(=O)c1ccc(C(=O)N2CCN(S(=O)(=O)c3cccs3)CC2)cc1
 : 14	12	8	1.1	-16	-0.7	3.7	5	0%	1.3
CC(=O)Nc1ccc2nc(NC(=O)c3cccs3)sc2c1
 : 1	6	6	-2.8	6	-28	1.7	9	-16%	-7.9
C/C(=N\NC(=O)Cc1ccc(Cl)cc1)c1ccccn1
 : 65*	.	.	.	63	.	-1.8	88*	1%	-0.4
O=c1c(-c2ccc(F)cc2)coc2cc(O)ccc12
 : -20	-1	5	0.8	-21	-2.6	-3.1	3	-7%	-6.5
CSc1cccc(NC(=O)CCn2c(=O)c3cccn3c3cccnc32)c1
 : 12	-1	2	1.7	7	-0.1	4.1	-1	.	1.4
Cc1c(Cl)cn2c(=O)cc(CN3CCN(c4ccccc4)CC3)nc2c1Cl
 : -2	.	.	.	1	-0.6	?	.	1%	0.0
CCC(=O)N1COC[C@@H]1Cc1ccccc1
 : 10	.	.	.	-16	.	-2.8	2	0%	0.1
CCSc1nnc(NC(=O)CC(C)C)s1
 : 0	7	-2	-2.5	15	-2.1	-5.2	-7	2%	0.1
CC1=NN(c2nc3ccccc3s2)C(O)(C(F)(F)F)C1 (centres undefined)
 : -6	6	6	1.1	-3	2.5	1.1	-5	16%	0.3
CN(CC(=O)N(CCO)Cc1ccccc1)S(=O)(=O)c1ccc2c(c1)c(=O)n(C)c(=O)n2C
 : -18	4	2	-0.5	0	-0.1	0.8	-2	2%	1.1
CN(CCOc1ccccc1)C(=O)C1CCC(=O)N(CCCN2CCCC2=O)C1 (centres undefined)
 : 9	-1	8	-0.1	-2	2.5	0.3	-8	.	-0.8
COc1ccc(NC(=O)c2cnc(SC)nc2)cc1
 : -4	7	19	-1.9	1	-4.1	0.2	-3	-2%	0.3
NC(=O)CC(NC(=O)Cc1ccc(Br)cc1)c1ccc(N2CCC(Cc3ccccc3)CC2)c([N+](=O)[O-])c1 (centres undefined)
 : -22	16	26	-2.3	-10	3.3	-4.9	70	.	0.3
Cc1ncsc1CCC(=O)N1CCCC(C(=O)c2cccc(Cl)c2)C1 (centres undefined)
 : 13	-14	-11	-2.8	6	-1.3	?	-7	-10%	0.8
NS(=O)(=O)c1ccc(CNC(=S)NC2CCCCC2)cc1
 : -13	11	4	-4.8	2	?	-0.6	-2	9%	0.1
O=C(NC1CCCCC1)c1cc2cc(Br)ccc2o1
 : 0	2	-3	-0.2	-5	0.9	3.5	3	.	-0.2
CCn1c(C2CCN(Cc3ccccc3)CC2)n[nH]c1=S
 : -9	7	-8	-4.1	-2	-3.1	3.5	-2	3%	-0.5
C[C@H](CO)N1C[C@H](C)[C@@H](CN(C)C(=O)Nc2ccccc2)Oc2ccc(NS(=O)(=O)c3ccc(F)cc3)cc2C1=O
 : .	0&3	0&5	2.6&-2.9	.	3.1&-3.3	.	-1	.	1.0
COc1cccc(Nc2ccc(C(=O)O)cc2N)c1
 : -2	-13	-11	23	11	3.7	5.0	-3	11%	-2.1
COc1ccccc1/C=C/CN1CCC(CO)(Cc2ccccc2)CC1
 : 44	-12	-11	4.5	-1	1.8	1.1	-5	-5%	-0.1
CCCn1c(Sc2nnnn2-c2ccccc2)n[nH]c1=O
 : -7	.	.	.	-23	.	-0.9	3	>100µM*	0.5
COC(=O)C1C(=O)NCC1c1ccc(C)cc1 (centres undefined)
 : -16	15	3	-3.2	5	-3.0	2.0	-31	5%	-0.1
O=C(CSc1nc2[nH]ncc2c(=O)n1-c1ccccc1Br)NCc1ccco1
 : -8	.	.	.	20	.	1.3	.	5%	-1.6
O=C(O/N=C1\CCCc2ccccc21)c1ccc(F)cc1
 : -11	11	13	-1.6	-7	.	-2.0	.	-3%	1.0
CCOc1ccc(NS(=O)(=O)c2ccc3[nH]cc(C(=O)NCCOC)c(=O)c3c2)cc1
 : 3	.	.	.	-6	.	4.5	-5	11%	-0.4
Cn1c(=O)c2ccccc2n(CC(=O)NC2CCCCC2)c1=O
 : 0	4	9	-2.6	-6	-0.1	-3.2	-1	.	0.5
CC(=O)Nc1cccc(C(=O)OCC(=O)Nc2ccc(Cl)cn2)c1
 : 2	5	9	2.1	-6	-1.5	0.9	1	-2%	0.3
O=[N+]([O-])c1cc(C(F)(F)F)ccc1NC1CCN(Cc2ccccc2)C1 (centres undefined)
 : 46	-25	-70	-0.2	-19	9.9	-1.7	-6	0%	-0.1
Cc1cc2c(=O)oc(-c3ccccc3Br)nc2s1
 : -22	-8	-3	-0.7	-17	2.4	-0.7	.	-8%	.
Clc1ccccc1C(c1nnnn1Cc1ccco1)N1CCN(Cc2ccco2)CC1 (centres undefined)
 : 0	.	.	.	.	.	6.3	0	20%	-0.5
CCn1c(SCC(=O)c2ccc(O)c(O)c2)nnc1-c1ccc(C)cc1
 : 0	.	.	.	4	.	-0.2	4	28%	0.1
O=C1CC(c2nc3ccccc3[nH]2)CN1Cc1ccccc1 (centres undefined)
 : -10	3	10	-0.6	17	1.7	-0.7	-1	-3%	-0.7
CC1CCCN(C(=O)c2cc3ccccc3cc2O)C1 (centres undefined)
 : -8	9	6	1.8	14	0.6	-1.1	-5	.	0.2
Cc1ccc2oc(C(=O)Nc3ccc(S(=O)(=O)Nc4ncccn4)cc3)c(C)c2c1
 : 5	.	.	.	-12	-2.3	?	-1	0%	-0.7
NS(=O)(=O)c1ccc(CCNC(=O)c2ccc(Br)s2)cc1
 : 1	16	12	-1.3	-13	0.7	-1.1	3	-29%	-0.7
CCOC(=O)C1CCN(C(=O)CN(c2ccc3c(c2)OCCO3)S(C)(=O)=O)CC1
 : -16	11	8	-7.0	-3	5.7	3.2	.	2%	.
O=C(COC(=O)c1ccc(Cl)c(S(=O)(=O)N2CCOCC2)c1)NCc1ccco1
 : -6	14	11	5.2	3	-0.4	6.8	-2	6%	0.4
Cc1ccc(S(=O)(=O)NC(=NC(C)C(=O)O)c2ccccc2)cc1 (centres undefined)
 : -1	.	.	.	-7	.	2.7	-4	-1%	0.8

From PubChem
